High-throughput results as filed in PubChem BioAssay.
Bead autofluor – compound fluorescence in toxin protease inhibitor counterscreen. compound autofluorescence counterscreen, microsphere flow cytometry; hits give high values. actives 3.1% (n = 360,000). fluorescence intensity (concentration not given with the values);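 active = at least 3 SD above the mean of all compounds, about 16000 in these data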;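 also: 100 nL of 1 mM stock went into each well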
Sa RN4220 lethal – kills Staphylococcus aureus RN4220; actives 0.33% (n = 330,000); S. aureus RN4220 growth, OD600, 16 h; inhibition, % (concentration not given with the values);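 active = z-score of -3 or lower and OD600 up to 0.18 on both plates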;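 also: plate controls were untreated cells for no effect and reference antibiotic for full effect; stock transfer was 100 nL into about 80 µL; one replicate is shown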
Mtb hypoxia rep – Mtb hypoxia fluorescent reporter inhibition; M. tuberculosis hypoxia-regulated fluorescent reporter, fluorescence; fluorescence inhibition, % (concentration not given with the values); actives 0.1% (n = 300,000); AID 1159583;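 active = 35 to 45% if threefold the growth effect, above 45% if 1.5-fold the growth effect; inactive = the rest, general growth blockers included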;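 also: wells of about 50 µL received 100 nL stock; 0% = vehicle wells and 100% = reference inhibitor wells; whole bacteria with a GFP reporter of the hypoxia response; strong numbers were not always called active; many hits fall short of the cut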
Sa ugtP lethal – kills S. aureus RN4220 lacking UgtP; S. aureus RN4220 ugtP deletion, OD600 growth, 16 h; some inactives read as strong as hits; growth inhibition, % (no concentration beside the values); actives 0.54% (n = 330,000); AID 1259309;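 active = z-score under -3 and OD600 up to 0.15 on both plates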;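 also: plate controls were untreated wells for no effect and antibiotic for full effect; wells of about 80 µL received 100 nL stock; the first replicate is given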
PrP UTR inh – inhibition of PrP 5' UTR reporter expression; actives 0.35% (n = 340,000); inhibition, % (no concentration beside the values); cell-based PrP 5' UTR mRNA reporter, plate reader;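 active = every replicate at 50% or more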;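 also: 0 = median of the neutral control wells; tested in H4 reporter cells; numbers are from one replicate; inactives centre near -14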
BJeLR lethal – BJeLR cell viability loss; BJeLR (HRASV12) viability, CellTiter-Glo ATP luminescence, 48 h; reference of the scale not given here; actives 0.17% (n = 300,000); inhibition, % (no concentration beside the values);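 active = replicate mean above 50%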;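 also: 50 nL library stock added to about 25 µL; numbers are from one replicate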
Mtb hypoxia rep growth – recorded beside Mtb hypoxia rep, whose call it bears; growth inhibition, %; measured here: M. tuberculosis growth (absorbance);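 0% = vehicle and 100% = reference antibiotic; read after six days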
* marks the source's active call; other numbers are inactive results; x = no result given. Hits appear at their usual frequency (roughly 4% active in at least one column).

item | mol | Bead autofluor | Sa RN4220 lethal | Mtb hypoxia rep | Mtb hypoxia rep growth | Sa ugtP lethal | PrP UTR inh | BJeLR lethal
1 | CCC(C)(C)C1CCC(NC(=O)N2CCN(c3ccccc3O)CC2)CC1 (stereo unspecified) | 3457 | 1.4 | 1.8 | -5.1 | 7.7 | -17.9 | -9.0
2 | Cn1ncc(Cl)c1C(=O)N1CCN(c2cccc(Cl)c2)CC1 | 5126 | 1.4 | 9.3 | 7.3 | 5.8 | 4.6 | 3.1
3 | O=C(NCc1ccco1)Oc1ccccc1 | 11103 | 2.6 | 15.0 | 25.2 | 8.1 | -5.5 | 9.7
4 | COc1cccc(/C=N/Nc2nc(-c3cccnc3)nc3ccccc23)c1 | 3678 | x | x | x | x | -28.9 | -5.6
5 | CCn1c(C)[n+](CCOC(C)=O)c2cc(Cl)c(Cl)cc21 | 3788 | 8.0 | 14.0 | 6.2 | 7.1 | -66.7 | 11.3
6 | O=[N+]([O-])c1ccc(C=NNc2ncc(-c3ccccc3)cn2)cc1 | x | 3.4 | -11.3 | -16.7 | 2.8 | x | x
7 | CSc1cccc(NC(=O)COC(=O)C2(c3ccccc3)CC2)c1 | 3805 | -5.3 | 6.5 | 2.0 | 3.0 | -26.0 | x
8 | Cc1ccccc1NCC(=O)N/N=C\c1ccc([N+](=O)[O-])s1 | 2533 | x | x | x | x | -17.1 | 1.7
9 | CCn1c(CC(=O)Nc2ccc(F)cc2)nnc1SCC(=O)Nc1nnc(C)s1 | 3818 | 1.8 | -3.5 | 10.5 | -1.3 | -6.6 | 2.1
10 | CN(C(=O)CS(=O)(=O)Cc1ccccc1Cl)c1ccccc1 | 2070 | 7.7 | 2.8 | 0.3 | -2.2 | -16.8 | 1.9
11 | Cc1ccc(C(=O)N2CCC(Cc3ccccc3)CC2)cc1[N+](=O)[O-] | 4251 | 4.1 | 6.8 | -5.4 | 6.3 | -14.9 | -0.4
12 | Cc1nnc(SCC(=O)NC2CCS(=O)(=O)C2)n1Cc1ccccc1 (stereo unspecified) | 4551 | 4.9 | -8.3 | -3.9 | 8.5 | 1.5 | 2.9
13 | CCOc1ccc2[nH]cc(C(=O)NCc3ccc(F)cc3)c(=O)c2c1 | x | 6.1 | 18.5 | 6.6 | -6.3 | -13.7 | 9.3
14 | O=C(Nc1cccc(-c2ccc3nncn3n2)c1)C(F)(F)F | 5202 | 2.8 | 2.7 | 2.9 | 3.3 | -7.4 | -2.0
15 | COc1cc(NC(=O)c2cc(C)nc3ccccc23)cc(OC)c1 | 4079 | -2.2 | 3.6 | 4.9 | 3.5 | -27.0 | x
16 | C/C(=N\NC(=O)c1ccccc1)c1ccc2c(c1)OCO2 | 22585* | x | x | x | x | -48.3 | 1.5
17 | Cc1ccc(S(=O)(=O)N2CCCC2CNC(=O)C(=O)NC2CC2)cc1 (stereo unspecified) | 4748 | 5.5 | -4.2 | -11.3 | 8.0 | -1.2 | -7.7
18 | Cc1ccc(N(C(=O)CNC(=O)c2cccs2)C(C(=O)NC2CCCC2)c2ccncc2)cc1 (stereo unspecified) | 3704 | 1.3 | -0.4 | 4.8 | 1.9 | 4.3 | 7.3
19 | COc1cc(N)c(Cl)cc1C(=O)OCC(=O)c1cccs1 | 4102 | 0.4 | 9.9 | 4.6 | -0.2 | -27.7 | 2.3
20 | CC(C)(/C=N/NC(=O)CSCc1ccccc1Cl)CCC#N | 2061 | x | x | x | x | -20.5 | 4.6
21 | Cn1nnnc1SCCOc1ccc(C#N)cc1 | 4080 | 6.0 | x | x | 1.9 | -6.3 | 1.8
22 | COc1cc(OC)cc(-c2c(-c3cccs3)c3cc(-c4ccc(CN5CCOCC5)cc4)ccc3n2C)c1 | 4011 | 1.9 | -1.5 | 2.6 | 2.0 | -16.1 | x
23 | CCc1c(C2(O)CCCCC2)[nH]c2ncccc12 | 3565 | -7.1 | 10.0 | 8.0 | -2.6 | -4.0 | x
24 | O=C(NCCC1=CCCCC1)c1ccc(F)cc1 | 9561 | 6.8 | x | x | -0.1 | -29.2 | -2.3
25 | COc1ccc(C(=O)CSC#N)cc1OC | 2587 | -5.3 | -2.3 | 7.8 | -10.6 | -19.9 | 4.8
26 | COC(=O)C1CCN(C(=O)c2oc3c(Cl)cc(C)cc3c2C)CC1 | 6403 | 7.7 | 2.2 | -2.7 | 1.2 | -73.2 | 1.2
27 | CCOCC(=O)Nc1ccc2c(c1)OCCO2 | 9421 | -3.9 | -0.6 | 1.8 | -0.8 | -15.1 | -4.1
28 | COc1ccc(S(=O)(=O)N(Cc2ccco2)Cc2cc3ccccc3[nH]c2=O)cc1 | 5655 | 1.1 | 7.1 | 8.0 | -2.2 | -5.3 | -3.8
29 | COc1cc(C2CC(=O)Oc3cc(O)ccc32)cc(OC)c1OC (stereo unspecified) | 3819 | 3.7 | 6.5 | 3.8 | 10.6 | -13.3 | x
30 | CCNC(=O)NC(=O)C(C)SCc1ccccc1C (stereo unspecified) | 9828 | 6.1 | 6.6 | 13.1 | 1.4 | -15.9 | -1.4
31 | COc1cccc(N=c2oc3cc(O)ccc3cc2C(=O)NCC2CCCO2)c1 (stereo unspecified) | 4716 | 6.7 | 0.6 | -2.4 | 4.1 | -20.4 | 6.5
32 | CNS(=O)(=O)c1ccc(CCC(=O)N2CCOCC2)cc1 | 3301 | x | x | x | x | -24.2 | -14.9
33 | CCCN(CCO)Cc1cccc(Cl)c1 | 16966* | 0.1 | 6.2 | 1.9 | 2.8 | 2.9 | 0.5
34 | O=c1c2cc(Br)ccc2nc2n1CCCCC2 | 3105 | 5.8 | 2.8 | 1.8 | 13.2 | -9.9 | -6.7
35 | O=C(/C=C/c1ccc(F)cc1)NC(Cc1c[nH]c2ccccc12)C(=O)O (stereo unspecified) | 4872 | x | x | x | x | 27.3 | 1.3
36 | c1nnc(NC2=NCCC2)s1 | 2501 | -3.5 | -1.4 | 17.9 | -7.5 | -15.4 | 16.1
37 | CCc1ccccc1-n1c(-c2ccncc2)n[nH]c1=S | 22962* | 4.9 | -4.4 | 0.3 | 3.9 | -27.3 | -4.0
38 | CC(C)[C@H](NC(=O)c1ccccc1Cl)C(=O)OCC(=O)N1CCCCC1 | 3115 | 5.2 | 6.6 | 2.9 | 11.0 | -14.0 | x
39 | Cc1ccc(/C=C/C(O)=C2/C(=O)N(C)C3(C)CC2c2ccccc2O3)cc1 (stereo unspecified) | 3502 | 3.6 | 4.0 | 5.1 | 6.8 | -21.0 | -7.6
40 | O=C(NCCN1CCCCC1)c1ccc(=O)oc1 | 10294 | 5.4 | 6.7 | 1.1 | 12.0 | -36.2 | -8.8
41 | O=C(N1CCOCC1)C12CCC3CC(CC(C3)C1)C2 | 4865 | 1.1 | x | x | 0.7 | -21.2 | -5.0
42 | CCOc1ccc(Cn2c3ccc(OC)cc3c3nc4ccccc4nc32)cc1 | 2285 | 6.2 | 3.7 | -2.0 | 0.7 | -19.3 | x
43 | COc1cc(NS(=O)(=O)c2ccc(NC(=O)C3CCCO3)cc2)nc(OC)n1 (stereo unspecified) | 11221 | 3.0 | 3.8 | 8.6 | 5.5 | -4.7 | x
44 | Cc1ccccc1-n1nnnc1SCC(C)C | 4336 | 12.8 | 16.1 | 7.5 | 10.3 | 14.0 | 0.8
45 | CCCn1c(=O)c(C(=O)Nc2ccccc2C(=O)OCC)c(O)c2ccccc21 | 10492 | 14.8 | 0.8 | 5.5 | 21.6 | -29.7 | -2.2
46 | O=C(Nc1ccccc1N1CCOCC1)c1cc2c(s1)CCCCC2 | 3370 | 7.5 | 3.7 | 0.2 | -4.0 | -28.7 | -6.5
47 | O=C(Nc1nccs1)c1cc(-c2ccccc2)nc2ccccc12 | 2486 | 6.7 | 3.4 | 7.9 | -13.0 | -10.9 | -19.0
48 | CC(C)Cn1c(CCCNC(=O)c2ccco2)nc2ccccc21 | 6081 | 3.3 | 7.7 | -0.8 | 2.1 | -2.8 | 3.5
49 | COc1cc(C2CC(=O)Nc3ccccc3S2)cc(OC)c1OC (stereo unspecified) | 9804 | 5.0 | 17.4 | 6.0 | -3.2 | -19.9 | -4.4
50 | Fc1ccc(COc2ccccc2-c2ccnc3ncnn23)cc1 | 4193 | 4.0 | 13.3 | 8.5 | 2.4 | 8.9 | 2.0
51 | O=C(CC(c1ccccc1)c1ccccc1)NCCO | 3303 | -8.9 | 14.2 | 6.1 | 3.1 | -7.8 | -1.3
52 | C=CCOc1ccccc1/C=N/n1nnnc1N | 3964 | x | x | x | x | -27.4 | -4.0
53 | C/C(CC(=O)Nc1cc(Cl)ccc1Cl)=N\NC(=O)c1ccccc1Br | 4484 | x | x | x | x | -9.4 | -2.5
54 | O=C(Nc1ccc(-c2noc(COc3ccccc3Cl)n2)cc1)c1ccco1 | 2128 | 4.0 | x | x | -5.4 | -23.8 | 6.1
55 | COc1ccc2cc(C=NNC(=O)CN(c3ccccc3)S(=O)(=O)c3ccccc3)c(Cl)nc2c1 | x | 9.0 | 8.3 | -4.0 | -4.6 | x | x
56 | O=C(CSc1ccc2c(c1)OCCO2)Nc1cccc(S(=O)(=O)N2CCCCC2)c1 | 6803 | 5.4 | 18.5 | 3.3 | 17.6 | -26.8 | -6.2
57 | COc1ccc(C(=O)Nc2c3c(nn2-c2ccc([N+](=O)[O-])cc2)CS(=O)(=O)C3)cc1 | 6199 | -1.3 | 14.3 | 1.0 | -1.4 | -29.2 | 0.2
58 | O=C1CCCC2=C1C(c1cccs1)n1nc(SCc3ccccc3)nc1N2 (stereo unspecified) | 23714* | -0.1 | 1.0 | 0.1 | -3.2 | -18.9 | 0.8
59 | O=C(Nc1ccccc1C(=O)NCC1CCCO1)c1ccccc1F (stereo unspecified) | 5205 | 5.5 | 12.6 | 8.8 | 10.5 | -3.5 | 1.9
60 | Cc1cc(OCCCN2CCN(Cc3ccccc3)CC2)ccc1[N+](=O)[O-] | 4651 | 0.3 | 9.9 | 8.3 | 11.7 | -23.6 | -6.5

Going on with the list:
item | mol | Bead autofluor | Sa RN4220 lethal | Mtb hypoxia rep | Mtb hypoxia rep growth | Sa ugtP lethal | PrP UTR inh | BJeLR lethal
61 | Cc1nnc2sc(SCC(=O)Nc3nccs3)nn2c1=O | 8893 | x | x | x | x | -38.3 | 5.7
62 | CC(=O)CSc1ccc(-c2nc3cc(C)c(C)cc3[nH]2)cn1 | 4224 | 4.4 | 14.8 | 12.0 | 5.3 | 81.8* | 7.3
63 | CC(=O)c1ccc(S(=O)(=O)NCCc2cn3ccc(C)cc3n2)cc1 | 5760 | 1.6 | 6.4 | 4.4 | 0.1 | -34.9 | 2.8
64 | Cc1nnc(SCC(=O)N2CCOCC2)c2ccccc12 | 6269 | 0.8 | 10.3 | 8.2 | -3.8 | -11.7 | 2.1
65 | O=C(CC(C(=O)O)c1ccccc1)Nc1cccc2ccccc12 (stereo unspecified) | 1946 | 1.5 | -0.5 | 12.7 | -2.1 | -12.4 | -2.5
66 | CCCCOc1ccc(/C=C/C(=O)N(CC)CC(=O)Nc2ccc3c(c2)OCCO3)cc1OC | 3279 | 1.4 | 5.6 | 2.9 | 1.2 | -7.5 | 2.7
67 | CC(=NNc1nc(-c2cc(C)ccc2C)cs1)c1cc2c(ccc3ccccc32)oc1=O | x | 6.2 | -1.9 | 7.4 | -7.3 | x | x
68 | CC(/C=N/n1c(-c2ccco2)n[nH]c1=S)=C\c1ccco1 | 2580 | x | x | x | x | -4.3 | 3.0
69 | Cc1cccc(C(c2c(C)nn(-c3ccccc3)c2N)c2c(C)nn(-c3ccccc3)c2N)c1 | 2584 | 1.2 | 4.6 | 6.1 | 10.4 | -4.9 | 5.6
70 | Cc1cc(C)nc(NC(C)(C)C(=O)O)n1 | 4439 | 1.7 | -0.3 | 3.0 | 6.8 | -24.1 | -3.7
71 | CN(C)c1cccc(C(=O)NNC(=O)CSc2ccccc2)c1 | 4539 | 1.5 | -0.6 | -7.8 | 3.1 | -13.8 | -11.2

Shown as labelled records: part of the list above
(32) CNS(=O)(=O)c1ccc(CCC(=O)N2CCOCC2)cc1
  Bead autofluor: 3301; Sa RN4220 lethal: x; Mtb hypoxia rep: x; Mtb hypoxia rep growth: x; Sa ugtP lethal: x; PrP UTR inh: -24.2; BJeLR lethal: -14.9
(33) CCCN(CCO)Cc1cccc(Cl)c1
  Bead autofluor: 16966*; Sa RN4220 lethal: 0.1; Mtb hypoxia rep: 6.2; Mtb hypoxia rep growth: 1.9; Sa ugtP lethal: 2.8; PrP UTR inh: 2.9; BJeLR lethal: 0.5
(34) O=c1c2cc(Br)ccc2nc2n1CCCCC2
  Bead autofluor: 3105; Sa RN4220 lethal: 5.8; Mtb hypoxia rep: 2.8; Mtb hypoxia rep growth: 1.8; Sa ugtP lethal: 13.2; PrP UTR inh: -9.9; BJeLR lethal: -6.7
